Screening data: PubChem BioAssay, Broad Institute
FGF22 binding: FGF22 (human) thermal shift binding. Q9HCT0. recombinant FGF22 thermal shift, SYPRO orange fluorescence; percent of sucrose octasulfate shift, DMSO zero. calls only at 9.99 µM. hit rate 1.5% among 340,000. AID 651658;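 active means melting point raised past a set limit in the mean and every replicate; inconclusive means no clear call; three in four hits are not shown here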
Target sequence (Q9HCT0 whole entry, looked up): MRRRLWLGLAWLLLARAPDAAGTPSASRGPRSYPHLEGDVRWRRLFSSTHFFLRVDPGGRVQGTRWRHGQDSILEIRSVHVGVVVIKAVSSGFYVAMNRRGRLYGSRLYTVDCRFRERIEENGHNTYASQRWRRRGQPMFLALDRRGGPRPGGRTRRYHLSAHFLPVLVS
MLL AF4-AF9 inh: MLL-AF4/AF9 protein interaction inhibition; P42568; AlphaScreen, biotin-AF4 peptide binding to FLAG-AF9; inhibition, % at 10 µM; hit rate 0.47% among 350,000;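 active means every replicate reaching a set inhibition limit, whatever the replicate mean, cut at about 25% in these data; inconclusive means mean inhibition reaches that limit but some replicates miss it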;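 further: 0% = plate neutral control median and 100% = total signal loss; the record names both 10 and 1 µM as test concentration; the first replicate is given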
Target sequence (P42568 whole entry, looked up): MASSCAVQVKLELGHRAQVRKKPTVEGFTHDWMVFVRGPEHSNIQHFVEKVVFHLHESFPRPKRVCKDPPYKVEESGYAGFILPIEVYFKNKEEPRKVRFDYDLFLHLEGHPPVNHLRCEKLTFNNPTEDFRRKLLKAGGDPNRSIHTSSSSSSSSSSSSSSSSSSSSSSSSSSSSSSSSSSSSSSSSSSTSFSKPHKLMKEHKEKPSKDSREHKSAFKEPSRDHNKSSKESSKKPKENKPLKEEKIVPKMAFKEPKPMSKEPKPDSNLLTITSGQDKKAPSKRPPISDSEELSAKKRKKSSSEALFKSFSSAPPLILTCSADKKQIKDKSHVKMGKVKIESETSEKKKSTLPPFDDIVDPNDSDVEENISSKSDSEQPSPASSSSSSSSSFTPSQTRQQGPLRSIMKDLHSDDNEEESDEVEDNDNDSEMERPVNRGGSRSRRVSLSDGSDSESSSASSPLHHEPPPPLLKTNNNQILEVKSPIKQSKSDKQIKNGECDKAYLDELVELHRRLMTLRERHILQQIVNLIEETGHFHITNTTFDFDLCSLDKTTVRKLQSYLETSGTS
rRNA inh HTS: selective bacterial rRNA inhibition in E. coli; E. coli WT GFP vs humanized-ribosome RFP mutants, fluorescence, 24 h; hits give low values; DMSO median 0, no signal -100; GFP signal change (wild-type ribosome), % (no concentration beside the values); hit rate 1.6% among 350,000; AID 720706;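 active means significant combined selectivity score with lowered wild-type GFP, culture density cut under 30%, mutant RFP and density less affected; inactive means any of these conditions unmet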; further: one replicate is shown; some compounds called inactive have numbers as strong as hits
rRNA inh HTS OD600: recorded beside rRNA inh HTS, whose call it bears; OD600 change, %; measured here: OD600 growth;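 optical density of the mix in the first replicate; 0 = DMSO median and -100 = no signal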
rRNA inh HTS RFP: second read-out of rRNA inh HTS, no call of its own (marks repeat the call); RFP signal change, %; measured here: RFP humanized mutant strains;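 first replicate; 0 = DMSO median and -100 = no signal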
The depositor's hits bear a star; i = inactive; u = inconclusive; + = active, no number; & = joins results of further samples. An excerpt (hit frequency here may not be typical).

SMILES	FGF22 binding	MLL AF4-AF9 inh	rRNA inh HTS	rRNA inh HTS OD600	rRNA inh HTS RFP
C[C@H]1CN([C@@H](C)CO)C(=O)c2cc(NC(=O)CCCN(C)C)ccc2O[C@@H]1CN(C)S(C)(=O)=O	i	-1.4	3	14	-1.7
CCN(CC(=O)Nc1ccc2c(c1)OCCO2)C(=O)CCc1ccc(OC)cc1	i	1.4	5	0	2.3
O=C(C[C@@H]1CC[C@@H](NC(=O)CN2CCOCC2)[C@@H](CO)O1)NCCc1ccncc1	i	0.1	0	0	-1.0
COc1cccc(-c2noc(CCC(=O)N3CCN(c4cc(C)ccc4C)CC3)n2)c1	i	1.6	-3	-24	2.0
COc1ccc(NC(=O)N(C)C[C@H]2Oc3ccc(NC(=O)Cc4ccccc4)cc3CC(=O)N([C@H](C)CO)C[C@@H]2C)cc1	i	-1.1	-2	-3	-1.1
O=C(C[C@@H]1CC[C@H](NC(=O)Nc2ccc(F)cc2)[C@@H](CO)O1)NCc1ccccn1	i	-0.8	0	8	-1.9
CCCC#Cc1cnc2c(c1)C(=O)N([C@@H](C)CO)C[C@H](C)[C@H](CN(C)C(=O)Nc1c(C)noc1C)O2	i	-7.1	3	13	-2.1
COc1cccc(NC(=O)N2C[C@H](O)COC[C@@H]3O[C@@H](CC(=O)NC4Cc5ccccc5C4)CC[C@H]32)c1	i	-0.5	0	2	-3.0
Cc1c(-c2ccc(OCCN3CCCCC3)cc2)c(=O)oc2ccc3ccccc3c12	i	-0.4	6	2	-0.1
CC(C)(C)OC(=O)NCCc1onc(-c2ccccc2F)c1C(=O)O	i	-0.8	-3	7	-2.5
COC(=O)[C@]12C[C@H](CC(=O)N3CCSCC3)C(=O)N(Cc3ccccc3)C1=C[C@H](C(C)C)O[C@@H]2C1CC1	i	2.8	7	-6	0.7
CCCNC(=O)N1[C@H](CO)[C@@H](c2ccccc2)C12CN(C(=O)CC1CC1)C2	i	-1.0	2	8	-1.8
CCCNC(=O)N1C[C@H]2[C@@H](c3ccccc31)[C@@H](CO)N2C(=O)NCCC	i	-0.7	3	5	-1.6
COc1cccc(C(C)(O)c2nc(-c3cccs3)cs2)c1 (stereo not given)	i	u	-29	-57	-3.2
Cc1ccccc1-c1ccc([C@@H]2[C@H]3CN(C(=O)Cc4ccccn4)CC(=O)N3[C@H]2CO)cc1	i	-1.8	1	-9	3.1
O=C(NCC[C@H]1CC[C@@H](NC(=O)C2CCOCC2)[C@H](CO)O1)c1cc(Cl)cc(Cl)c1	i	-1.0	-1	2	-0.8
O=C(C[C@@H]1C[C@H]2c3cc(NC(=O)Nc4ccc(C(F)(F)F)cc4)ccc3O[C@H]2[C@@H](CO)O1)NCC1CC1	i	-0.3	-2	4	1.7
COc1ccc(CN(C)C[C@@H]2Oc3ccc(NC(=O)C4CC4)cc3CC(=O)N([C@H](C)CO)C[C@@H]2C)cc1	i	-0.7	1	0	0.3
CN1c2ccc(Br)cc2[C@@H]2[C@@H](CCN2C(=O)c2cccc(F)c2)[C@@H]1CO	i	1.3	-7	-7	2.7
COc1ccc(CN2C[C@H](COCc3ccccc3)Oc3cccc(F)c3S2(=O)=O)cc1	i	1.4	-4	3	-0.8
CCC(=O)N1C[C@@H](C)[C@H](OC)CN(C)C(=O)c2ccc(NC(=O)Nc3cccc(F)c3)cc2OC[C@H]1C	i	2.7	-4	-14	4.6
O=S(=O)(Cc1ccccc1)NCC[C@H]1CC[C@H](NS(=O)(=O)c2ccccc2)[C@@H](CO)O1	i	-0.7	-1	7	1.8
CCc1cnc(N2[C@H](C#N)[C@H](c3ccc(C#Cc4ccccc4F)cc3)[C@@H]2CO)s1	i	-0.7	0	-15	0.6
C[C@H](CO)N1C[C@H](C)[C@@H](CN(C)S(=O)(=O)c2ccccc2)OCc2cn(nn2)CCCC1=O	i	-0.4&1.1&0.7	5&-1	6&2	2.5&-2.0
COC(=O)c1sc(NC(=O)c2ccc3c(c2)OCO3)c(C#N)c1C	i	-2.2	7	3	-2.2
SMILES	FGF22 binding	MLL AF4-AF9 inh	rRNA inh HTS	rRNA inh HTS OD600	rRNA inh HTS RFP
C[C@@H]1CN([C@H](C)CO)C(=O)c2cc(N(C)C)ccc2O[C@@H](C)CCCCO[C@@H]1CN(C)C(=O)CCC(F)(F)F	i	-3.7	4	-1	-1.2
CCCC(=O)Nc1ccc2c(c1)OC[C@@H](C)N(C(=O)c1cnccn1)C[C@H](C)[C@@H](OC)CN(C)C2=O	i	-0.3	0	4	-0.6
CCS(=O)(=O)NCC[C@@H]1CC[C@@H](NS(=O)(=O)c2ccccc2C)[C@@H](CO)O1	i	-1.3	2	4	-0.3
CO[C@H]1CN(C)C(=O)c2ccc(NC(=O)C3CCC3)cc2OC[C@H](C)N(Cc2ccccn2)C[C@@H]1C	i	0.3&-7.2	-3&-1&-2	1&-1&9	0.2&0.6&0.7
C[C@@H]1CN([C@H](C)CO)C(=O)c2cc(N(C)C)ccc2O[C@H]1CN(C)S(=O)(=O)c1cccs1	i	1.6	-4	-5	0.1
C[C@@H]1CN([C@H](C)CO)C(=O)c2cccc(NC(=O)C3CC3)c2O[C@@H]1CN(C)C(=O)Nc1ccccc1	i	-4.5	5	11	-0.1
CN1C[C@H]2[C@@H](c3ccccc31)[C@H](CO)N2C(=O)Nc1ccccc1Cl	i	-1.2	-7	-5	-8.4
O=S(=O)(c1ccc2c(c1)CCC2)N1CCNCC1	i	0.3	29	11	4.1
Cc1noc(C)c1S(=O)(=O)N(C)C[C@H]1Oc2ccc(NC(=O)Cc3cn(C)c4ccccc34)cc2CC(=O)N([C@H](C)CO)C[C@@H]1C	i	7.1	1	3	1.1
CC(OC(=O)Cc1ccccc1F)C(=O)Nc1ccc(Cl)cn1 (stereo not given)	i	-2.4	1	-4	0.9
COc1ccc(C(C(=O)Nc2c(C)cccc2C)n2c(=O)c(-c3ccccc3)nc3ccccc32)cc1 (stereo not given)	i	7.8	10	10	-1.1
COc1ccccc1-c1cc(NC(C)=O)c2ncc(-c3ccc(F)cc3)n2c1	i	-6.9	0	-1	6.4
C[C@H](CO)N1C[C@H](C)[C@@H](CN(C)C(=O)Nc2cccc3ccccc23)Oc2ccc(NC(=O)NC3CCCCC3)cc2CC1=O	i	1.8	3	-3	4.5
O=C(C[C@@H]1CC[C@@H]2[C@H](COC[C@@H](O)CN2Cc2cc(F)ccc2F)O1)N1CCc2ccccc2C1	i	4.0	-4	-14	4.6
CC(C)COC(=O)N(C)C[C@H]1OCc2cn(nn2)CCCC(=O)N([C@H](C)CO)C[C@@H]1C	i	-2.5&-1.2	9&3	18&1	-1.7&0.3
CO[C@H](CN(C)C(=O)c1cc(Cl)cc(Cl)c1)[C@H](C)CN(C(=O)Nc1ccc(F)cc1)[C@H](C)CO	i	1.9	-2	-20	0.9
CC(C)NC(=O)N(C)C[C@@H]1Oc2ccc(NC(=O)CCCN(C)C)cc2C(=O)N([C@H](C)CO)C[C@H]1C	i	-3.1	4	11	0.0
CN(C)CCNc1nc(Oc2cccc(F)c2)c2sccc2n1	i	5.9	6	-8	2.9
CC(OC(=O)C1CC(=O)N(Cc2ccco2)C1)C(=O)Nc1cccc(C#N)c1 (stereo not given)	i	3.8	9	10	2.6
CC(C)NC(=O)Nc1ccc2c(c1)C(=O)N([C@H](C)CO)C[C@@H](C)[C@H](CN(C)C(=O)Nc1ccccc1)O2	i	-2.6	2	2	-1.5
CO[C@@H]1CC[C@@H]2CCN(C)C(=O)CCCN(C)C(=O)c3cc(C#N)ccc3OC[C@@H]1O2	i	-1.2	-2	1	-1.5
CC(C)C#Cc1ccc([C@H]2[C@@H](C#N)N(C(=O)C3CC3)[C@H]2CO)cc1	i	-0.3	0	-6	4.5
C[C@@H]1CN([C@H](C)CO)C(=O)c2cc(N(C)C)ccc2O[C@@H](C)CCCCO[C@@H]1CN(C)C(=O)Nc1ccccc1	i	0.2	1	1	-2.3
COc1ccc(C#Cc2ccc([C@H]3[C@@H](CO)N4C(=O)CN(C(=O)C5CCOCC5)C[C@H]34)cc2)cc1	i	0.6	-1	3	-2.7
COC(=O)C[C@H]1C[C@@H]2c3cc(NC(=O)Nc4ccccc4F)ccc3O[C@@H]2[C@@H](CO)O1	i	-26	-10	-7	2.7
SMILES	FGF22 binding	MLL AF4-AF9 inh	rRNA inh HTS	rRNA inh HTS OD600	rRNA inh HTS RFP
O=C(Cc1ccncc1)NCC[C@H]1CC[C@H](NC(=O)Nc2ccc(Cl)cc2)[C@@H](CO)O1	i	1.1	-1	-1	1.4
CO[C@@H]1CN(C)C(=O)c2cc(NC(=O)C3CCCC3)ccc2OC[C@H](C)N(CCC(F)(F)F)C[C@H]1C	+	0.9	-7	-17	3.1
C[C@H]1CN([C@@H](C)CO)C(=O)Cc2cc(NS(=O)(=O)c3cn(C)cn3)ccc2O[C@H]1CN(C)Cc1ccncc1	i	-2.7	3	2	-1.2
CN(C)C(=O)C[C@H]1CC[C@@H]2[C@H](COC[C@@H](O)CN2C(=O)C2CCOCC2)O1	i	-3.2	4	-1	29
C[C@H](CO)N1C[C@H](C)[C@@H](CN(C)Cc2ccncc2)Oc2cc(C#CC3CC3)ccc2S1(=O)=O	i	3.0	-5	-16	4.4
CO[C@@H]1CN(C)C(=O)c2ccc(NC(C)=O)cc2OC[C@@H](C)N(C(=O)NC2CCCCC2)C[C@H]1C	i	0.0&2.4	0&11	0&3	0.2&-0.3
O=C(NCCCCc1ccccc1)c1cccc(NC(=O)C2CCCCC2)c1	i	-1.3	-30*	-11*	-4.5*
Cc1ccc(S(=O)(=O)N[C@H]2CC[C@H](CC(=O)NCCCN(C)C)O[C@H]2CO)cc1	i	-12	7	5	-0.5
O=C(NCc1ccccn1)[C@H]1[C@H](CO)[C@H]2Cn3c(ccc(C4=CCCC4)c3=O)[C@@H]1N2Cc1cccnc1	i	-0.6	0	10	-2.5
O=C(Nc1c(-c2ccc3c(c2)OCO3)[nH][nH]c1=O)c1cnccn1	i	-0.7	0	12	-4.2
CC(C)NC(=O)Nc1ccc2c(c1)C(=O)N([C@@H](C)CO)C[C@@H](C)[C@@H](CN(C)C(=O)Nc1ccc3c(c1)OCO3)OCCCC[C@H](C)O2	i	-1.6	2	5	1.1
O=C(C1CCCC1)N1C[C@@H]2[C@H](c3ccccc31)[C@@H](CO)N2C(=O)Nc1cccc(F)c1	i	-0.9	-1	-14	1.2
C[C@@H]1CN([C@H](C)CO)C(=O)c2cccc(NC(=O)c3nc4ccccc4s3)c2O[C@@H]1CN(C)C(=O)Nc1ccc2c(c1)OCO2	i	4.2	0	-13	2.3
CCCNC(=O)N(C)C[C@H]1Oc2ncc(C#CCC(C)C)cc2C(=O)N([C@@H](C)CO)C[C@@H]1C	i	-2.2	6	3	-1.3
CC(=O)c1ccc(OC2(C)CCN(Cc3ccc(OC(F)(F)F)cc3)C2)cc1 (stereo not given)	i	1.1	-22	-62	4.6
CS(=O)(=O)N1C[C@@H](O)COC[C@@H]2O[C@H](CC(=O)NC3Cc4ccccc4C3)CC[C@H]21	i	3.9	1	2	-6.5
C[C@@H]1CN([C@@H](C)CO)C(=O)c2cc(C#Cc3ccccc3)cnc2O[C@H]1CN(C)C(=O)c1ccccc1	i	0.4	4	-18	-1.5
CC(C)C[C@@H]1NC(=O)[C@@H]2CSCCS(=O)(=O)N2C1=O	i	-2.0	20	17	0.3
C[C@@H]1CCCCO[C@@H](CN(C)C(=O)c2ccccc2)[C@H](C)CN([C@H](C)CO)C(=O)c2cc(N(C)C)ccc2O1	i	-1.3	0	-1	0.1
